RE007 growth inh – less growth of the S. pombe RE007 Vpr strain. 360,000 compounds, 0.21% hits. S. pombe RE007 Vpr strain, BacTiter-Glo ATP luminescence, 24 h; control for the full effect not named in the record. Potency, µM (highest dose often 92.2 µM), for inactives: top-dose activity change, negative = less growth; active = well fitted falling curve with a large enough effect; inconclusive = small, poorly fitted or top-dose-only effect; inactive = no such curve, though single readings can be large or run the other way;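 note: % is set by controls: 0 for no effect and ±100 for the full control effect; nearly all actives have a fitted effect of over 50% in size; the assay follows cell death caused by Vpr and the record does not say whether a fall means rescue or toxicity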
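Fission yeast strain RE007, carrying one chromosomally integrated HIV-1 vpr copy, was seeded at OD 0.01 in PMG+AL medium with 23 nL pinned compound. After 24 h at 30 °C and 99% humidity, viability was read by BacTiter-Glo luminescence.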
SARS PLP yeast – SARS-CoV PLP inhibition in yeast. S. cerevisiae expressing SARS-CoV PLpro, growth rescue; control for the full effect not named in the record. Potency, µM (titrated, usually from 32.9 µM), for inactives: at the top dose activity, positive = growth rescue. 330,000 compounds, 0.19% hits; active means well fitted rising curve with a large enough effect; inconclusive means small, poorly fitted or top-dose-only effect; inactive means no such curve, though single readings can be large or run the other way; note: 0% is about no effect; nearly all actives have a fitted effect of over 55% in size; growth read by luminescence after 48 h
Cruzain Triton – cruzain (T. cruzi) inhibition with detergent; purified cruzain, Z-FR-AMC fluorescence, 0.01% Triton; Potency, µM, inactives show max response, negative = inhibition, hits mostly inhibitors; 200,000 compounds, 0.43% hits; AID 1478;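 note: plate controls were neutral wells for no effect and buffer without enzyme for full effect; nearly all actives have a fitted effect of over 40% in size; top concentration of the series not given in the record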
Target sequence (P25779 123-467 limits assumed): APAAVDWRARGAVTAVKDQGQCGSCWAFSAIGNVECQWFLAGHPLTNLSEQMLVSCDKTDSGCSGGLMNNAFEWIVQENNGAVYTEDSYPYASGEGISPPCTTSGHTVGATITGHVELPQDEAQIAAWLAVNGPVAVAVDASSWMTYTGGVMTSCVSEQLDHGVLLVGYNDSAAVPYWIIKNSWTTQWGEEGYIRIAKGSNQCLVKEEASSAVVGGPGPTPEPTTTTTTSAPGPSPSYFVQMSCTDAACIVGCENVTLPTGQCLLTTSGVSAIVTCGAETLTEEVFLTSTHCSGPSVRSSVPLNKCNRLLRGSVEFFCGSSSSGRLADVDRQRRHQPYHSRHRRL
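Cruzain (1.5 nM) preincubated 15 min at RT with compound in 100 mM sodium acetate pH 5.5, 5 mM DTT, 0.01% Triton X-100. Reaction started with 2 uM Z-FR-AMC; AMC fluorescence (ex 360/em 450 nm) change over 60 s gave rate.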
Cruzain noTriton – cruzain (T. cruzi) inhibition without detergent; Potency, µM, for inactives: max response, negative = inhibition, actives largely listed as inhibitors; 200,000 compounds, 2.3% hits; P25779; purified cruzain, Z-FR-AMC fluorescence, no detergent; AID 1476;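 note: plate controls were enzyme without inhibitor for no effect and buffer without enzyme for full effect; nearly all actives have a fitted effect of over 40% in size; top concentration of the series not given in the record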
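Purified cruzain at 1.5 nM, pre-incubated 15 min with compound at room temperature in 100 mM sodium acetate pH 5.5, 5 mM DTT, 0.00005% Triton X-100. Reaction started with 2 uM Z-FR-AMC; AMC fluorescence increase over 60 s gives rate.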
LASV entry inh – inhibitors of Lassa virus binding or cell entry; Potency, µM (highest dose often 37.9 µM), for the others: at the top dose activity change, negative = inhibition, hits mostly inhibitors; Lassa virus pseudotype entry inhibition, cell reporter; control for the full effect not named in the record; 300,000 compounds, 1.2% hits; active means well fitted inhibition curve with a large enough effect; inconclusive means small, poorly fitted or top-dose-only effect, or effect the other way; inactive means flat fitted curve, though single readings scatter; tested in HEK293 cells; note: % is set by controls: 0 for no effect and ±100 for the full control effect; nearly all actives have a fitted effect of over 50% in size; luciferase read-out
MARV entry inh – inhibitors of Marburg virus binding or cell entry | 300,000 compounds, 1.8% hits | Marburg virus pseudotyped entry inhibition, cell reporter; control for the full effect not named in the record; about a third of the inactives were read at about 46 µM | AID 540276 | Potency, µM (highest dose often 37.8 µM), for inactives: top-dose activity change, negative = inhibition, hits mostly inhibitors; active = well fitted inhibition curve with a large enough effect; inconclusive = small, poorly fitted or top-dose-only effect, or effect the other way; inactive = flat fitted curve, though single readings scatter; tested in HEK293 cells; about a fifth of its hits are not listed in these tables; note: % is set by controls: 0 for no effect and ±100 for the full control effect; luciferase read-out
NS1 function inh – blocks influenza NS1 protein function. S. cerevisiae slowed by influenza A NS1, growth recovery by OD600. Potency, µM (highest dose often 46.1 µM), without a hit: at the highest dose activity, positive = more growth. 270,000 compounds, 0.4% hits. AID 2326; active means well fitted rising curve with a large enough effect; inconclusive means small, poorly fitted or top-dose-only effect; inactive means no such curve, though single readings can be large or run the other way; note: nearly all actives have a fitted effect of over 50% in size
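A cell-based growth assay was used: compounds that relieve NS1-induced slow growth of budding yeast raise OD600. Assay medium was yeast nitrogen base with ammonium sulphate and -URA supplement, pH 6.0, with 2% galactose.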
StopGo reporter – FMDV 2A StopGo reporter, luciferase signal | human cells with a luciferase reporter of 2A StopGo recoding; control for the full effect not named in the record | Potency, µM (series often up to 57.9 µM), inactives show at the highest dose signal change, negative = less light | 410,000 compounds, 1.2% hits; active = well fitted falling curve with a large enough effect; inconclusive = small, poorly fitted or top-dose-only effect; inactive = no such curve, though single readings can be large or run the other way; tested in HEK293T cells; note: % is set by controls: 0 for no effect and ±100 for the full control effect; nearly all actives have a fitted effect of over 45% in size; luciferase light after 4 h
* hit, by the source's call; ? = inconclusive; . = not tested or not shown; & = joins results of further samples; [ ] = dose if it differs, or a comment. Unless noted, calls come from the whole dose curve; as a rule, active = well fitted curve in the direction sought with a large enough effect; inconclusive = small, poorly fitted or top-dose-only effect, or another doubt; inactive = no such curve, though single readings can be large; an effect the other way counts as inactive or inconclusive. Potency is the fitted concentration of half-maximal effect.

SMILES	RE007 growth inh	SARS PLP yeast	Cruzain Triton	Cruzain noTriton	LASV entry inh	MARV entry inh	NS1 function inh	StopGo reporter
O=C(Nc1nnc(SCC(=O)N2CCOCC2)s1)c1ccccc1	-18%	-3%	-1.8%	4%	?	-39%	21%	-8%
CCN(CC)C(=O)c1ccc(Oc2ccc([N+](=O)[O-])cc2Cl)cc1	33%	-2%	.	.	.	?	-35%	?
Clc1ccc(-n2ncc3c(NCc4ccc5c(c4)OCO5)ncnc32)cc1	31%	4%	-3.0%	-23%	-16%	?	-1%	-7%
CCOc1ccc(N(Cc2cc3cc(OC)ccc3[nH]c2=O)S(C)(=O)=O)cc1	9%	14%	0.8%	?	0%	1%	-19%	-27%
CCOc1ccc(NC(=O)N2CCC(NC(=O)C(Cc3cccc(F)c3)NC(C)=O)CC2)cc1 (configuration not stated)	-4%	4%	.	.	3%	2%[46.1 µM]	-5%	-4%
COc1c(C)c2c(c(O)c1C/C=C(\C)CCC(=O)O)C(=O)OC2	-2%	.	4.4%&1.8%&1.0%&-0.1%&3.8%	-2%&2%&6%&8%&-2%	.	.	.	-21%&0%&-16%
CNC(=O)CSc1nc(SC)ns1	-4%	1%	.	.	-7%	24%[46.1 µM]	.	7%
CCOC(=O)C1(Cc2ccccc2)CCCN(C2CCCC2)C1 (configuration not stated)	-15%	1%	.	.	23%[46.1 µM]	?	0%	-16%
O=C(COc1ccc(Cl)cc1)N1CCN(C/C=C/c2ccccc2)CC1	-12%	1%	-1.4%	21%	?	?	-9%	?
CC1CCC(C(=O)c2c(O)c3ccccc3oc2=O)CC1 (configuration not stated)	-7%	-6%	4.3%	-6%	2%	3%	-104%	-8%
COC(=O)c1ccccc1NC(=O)CSc1nnc(-c2cccnc2)n1C	-4%	-12%	2.1%	-3%	-1%	-2%	6%	7%
CC1(C)NC(=S)C(C)(C)N1N=O	15%	.	.	.	10%[46.1 µM]	3%[46.1 µM]	.	-12%
COc1cccc(-n2c(C)nc3ccccc3c2=O)c1	3%	13%	4.6%	1%	?	-13%&-13%	-15%[9.22 µM]	14%
O=c1c2c(nc3cc(-c4ccccc4)[nH]n13)CCC2	-19%	-1%	3.6%	1%	4µM*	-21%	-4%	-20%
Cc1ccc(OCCCC(=O)Nc2nccs2)cc1	4%	8%	-1.6%	-7%	5%	-4%	-9%	13%
Fc1ccc(N2CCN(c3ncnc4c3nc3n4CCCC3)CC2)cc1	.	.	0.2%	7%	5%[46.1 µM]	3%[46.1 µM]	.	1.8µM*
Cn1c(N)c(Sc2ccccc2[N+](=O)[O-])c(=O)n(C)c1=O	4%	0%	.	.	25%	-3%[46.1 µM]	-11%	-6%
Cc1cc(S(=O)(=O)Nc2ccc(N(C)C)cc2)c(C)s1	-7%	2%	-4.1%	2%	0%	-7%	-8%	44%[activator]
Cn1cnnc1SCc1ccc(C(=O)O)cc1	38%	-4%	2.9%	0%	7%	-9%	9%	-14%
Cc1cc(C)cc(NC(=O)c2snc3c(=O)[nH]cnc23)c1	.	?	-0.9%	4%	.	-1%	-3%	.
COc1ccc(C(=O)N[C@H](C(=O)NCCCn2nc(C)cc2C)C(C)C)cc1	-10%	2%	.	.	-8%	15%	.	-9%
CS(=O)(=O)N(CC(=O)NC1CCCC1)c1cccc(F)c1	-8%	5%	-4.0%	-5%	-1%	5%	-1%	.
O=C(COC(=O)c1ccccc1O)Nc1cc([N+](=O)[O-])ccc1Cl	11%	0%	.	.	.	.	-3%	-8%
N#Cc1cc(-c2ccc(Cl)cc2)cnc1Sc1ccc(F)cc1	-16%	4%	-2.4%	-1%	-24%	11%	28%	1%
COCCCNC(=O)Cc1c(C)c2cc3c(cc2oc1=O)OC(C)(C)CC3	2%	0%	.	.	.	.	1%	12%
SMILES	RE007 growth inh	SARS PLP yeast	Cruzain Triton	Cruzain noTriton	LASV entry inh	MARV entry inh	NS1 function inh	StopGo reporter
CC(C)c1nc2cc(C(=O)NC(c3cccnc3)C(F)(F)F)ccc2o1 (configuration not stated)	10%	-3%	.	.	.	.	-13%	-5%
CC(=O)Nc1cccc(/C(C)=N/NC(=O)c2ccc(O)cc2)c1	0%	0%	.	.	9%[46.1 µM]	-5%[46.1 µM]	.	1%
N#C/C(=C\c1cn(Cc2ccccc2C#N)c2ccccc12)C(=O)NCc1cccs1	.	0%	5.3%	?	.	.	15%	.
Cc1cccc(NC(=O)CCC(=O)OCc2ccc(Br)cc2)c1	-14%	-16%	-8.2%	4%	?	4%	-18%	-6%
CCCCN(C)CCNC(=O)c1ccc2c(c1)NC(=O)CN2	.	.	0.1%	-1%	26%[46.1 µM]	.	.	-4%
CCN(CC(=O)NC)S(=O)(=O)c1ccc(C)cc1	0%	4%	0.6%	-2%	1%	?	4%	0%
COc1ccc(-n2c(COc3ccccc3)n[nH]c2=S)cc1	17%	4%	.	.	.	.	17%	-5%
COc1cc2c(cc1NC(=S)NC(=O)/C=C/c1ccco1)oc1ccccc12	-10%	6%	-4.6%	13µM*	3%[46.1 µM]	?	10%	-20%
Cc1ccccc1NS(=O)(=O)c1ccc(C(=O)NCCCN2CCCC2=O)cc1	-5%	2%	.	.	-1%	-21%	.	-29%
O=c1[nH]c(CSc2nnc3ccccn23)nc2ccccc12	-15%	0%	-0.3%	2%	4%	10%	-1%	5%
C[C@H]1CC[C@@]2(C)[C@@H](CC[C@@H]3[C@@H]2CC[C@]2(C)[C@@H](O)CC[C@@H]32)C1	-8%	3%	.	.	.	.	-37%	-18%
O=C(COc1ccc(-c2ccccc2)cc1)N/N=C/c1ccccc1Br	11%	18%	0.1%	?	-6%	5%	29%	-4%
Cc1ccc(C)c(S(=O)(=O)NCc2ccc(C(=O)N3CCC(Cc4ccccc4)CC3)cc2)c1	5%	-7%	1.9%	8%	?	?	6%	-24%
CC(=O)Nc1ccc(S(=O)(=O)N(C)Cc2ccccc2)cc1	21%	-1%	.	.	6%	-3%	.	-28%
COc1ccc(OC)c(C2(O)CSC(=Nc3cccnc3)N2Cc2ccco2)c1 (configuration not stated)	9%	-4%	.	.	-27%	-13%[46.1 µM]	-12%	?
C/C(CC(=O)Nc1cc(C)ccn1)=N\NC(=O)c1cccc(C)c1O	?	-9%	.	.	?	?	-58%	51%[activator]
Cc1cc(-c2ccccc2)nc(N(C)N)c1S(C)(=O)=O	3%	-3%	.	.	11%[46.1 µM]	-20%[46.1 µM]	.	-9%
Cc1nc(-c2ccc(NC(=O)c3ccccc3)cc2)cs1	45µM*	6%	.	.	.	.	1%	-42%
COC(=O)c1cc(S(=O)(=O)NCC2CCN(Cc3cccc(Cl)c3)CC2)c[nH]1	8%	-1%	.	.	.	.	-6%	-16%
O=C(Nc1nnc(C2CC2)s1)c1cccnc1Oc1ccc(Cl)cc1	8%	0%	.	.	.	.	-3%	-24%
Nc1cccc(N=[N+]([O-])c2cccc(N)c2)c1	-6%	.	.	.	?	?	.	53%[activator]
N#Cc1ccc(/C=N/NC(=O)c2cccc(S(=O)(=O)N3CCOCC3)c2)cc1	-6%	-1%	.	.	2%[46.1 µM]	2%[46.1 µM]	.	-16%
CCCCN(C(=O)CSc1nncn1-c1ccccc1)c1c(N)n(Cc2ccccc2)c(=O)[nH]c1=O	-1%	-1%	-1.1%	?	1%	0%	-19%	1%
N#Cc1nc(Cc2ccccc2)oc1NCCCn1ccnc1	-9%	-5%	5.8%	1%	7%	-2%	3%	.
CC1(C)CC(=O)C(CC(=O)NC2CCCc3ccccc32)C(=O)C1 (configuration not stated)	-11%	-1%	.	.	-2%	4%[46.1 µM]	.	1%
SMILES	RE007 growth inh	SARS PLP yeast	Cruzain Triton	Cruzain noTriton	LASV entry inh	MARV entry inh	NS1 function inh	StopGo reporter
O=C(O)c1ccccc1-c1ccccc1C(=O)Nc1ccc2c(c1)C(=O)c1ccccc1-2	-12%	.	.	.	-20%[46.1 µM]	0%[46.1 µM]	.	-23%
Cc1ccc(C2=NOC(C)(c3nnc(-c4ccc(F)cc4)o3)C2)cc1 (configuration not stated)	3%	1%	.	.	.	.	-86%	-4%
CC1Cc2ccccc2N1C(=O)CSc1nnnn1-c1ccc2c(c1)OCCO2 (configuration not stated)	1%	8%	-1.5%	?	0%	?	-18%	-9%
CC(=O)c1ccccc1OCC(O)Cn1c(CO)nc2ccccc21 (configuration not stated)	.	.	-5.2%	4%	15%[46.1 µM]	5%[46.1 µM]	.	-2%
COc1cc(NC(=O)COC(=O)c2[nH]c(C)c(C(C)=O)c2C)cc(OC)c1	0%	-4%	.	.	-22%[46.1 µM]	?	.	?
Cc1nn2c(=O)cc(COC(=O)c3cccc(NC(=O)COc4ccccc4C)c3)nc2s1	.	.	-0.9%	16%	26%[46.1 µM]	.	.	2.8µM*
Cc1cc(NS(=O)(=O)c2ccc(NC(=O)c3ccco3)cc2)no1	0%	7%	-12%	-9%	1%	0%	-2%	-8%
CCN1C(=O)C(CC(=O)Nc2ccccc2)S/C1=N\c1ccccn1 (configuration not stated)	-1%	0%	.	.	13%[46.1 µM]	-14%[46.1 µM]	.	4%
O=C1CCC([N+](=O)[O-])C(c2cccc(Cl)c2Cl)N1 (configuration not stated)	13%	7%	-4.8%	-6%	-4%	0%[46.1 µM]	-1%	-25%
O=C(N/N=C/c1c(O)n(C2CCCCC2)c(=S)[nH]c1=O)c1ccccc1	6%	-3%	.	.	-2%[46.1 µM]	18%[46.1 µM]	16%	-15%
O=C(CSc1nnc(-c2ccc(S(=O)(=O)N3CCCC3)cc2)o1)NCc1ccco1	-2%	-8%	-0.6%	0%	-30%	21%	-2%	-20%
CCCCOc1ccc(C(=O)NCC(=O)NCC(c2ccc(OC)cc2)N2CCOCC2)cc1 (configuration not stated)	2%	-3%	.	.	-6%	-2%	.	12%
CCOC(=O)c1ccc(NC(=O)C2C3CCC(C3)C2C(=O)O)cc1 (configuration not stated)	-2%	-9%	1.6%	-28%	7%	?	-4%	47%[activator]
O=C(C1CCCCC1)N1CCCn2c1nc1ccccc12	-17%	0%	-7.5%	-14%	10%	21%	-3%	-1%
CCCCN(CC)C(=O)CCCn1c(=O)c2cccn2c2ccccc21	.	.	-4.2%	-6%	-24%[46.1 µM]	.	.	-22%
O=C(Nc1ccc(Cl)cc1C(F)(F)F)c1cc(S(=O)(=O)N2CCOCC2)ccc1F	.	.	-1.3%	5%	18%[46.1 µM]	.	.	-13%
O=C(COc1ccc(Br)cc1)N(Cc1ccco1)C1CCS(=O)(=O)C1 (configuration not stated)	7%	4%	.	.	24%[46.1 µM]	?	-17%	-10%

High-throughput results from PubChem.
